# Bioassay records as filed in PubChem BioAssay.
# gsp agonist: activates gsp, the McCune-Albright syndrome mutation; gsp mutant cells, cAMP HTRF, 30 min; control for the full effect not named in the record; Potency, µM (doses to about 76.9 µM), for inactives: at the top dose activation (cAMP increase), hits mostly activators; actives 0.13% (n = 340,000); AID 624287; active = well fitted activation curve with a large enough effect; inconclusive = small, poorly fitted or top-dose-only effect, or another doubt; inactive = no such curve, though single readings can be large or run the other way; cell line not stated here;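 further: phosphodiesterase inhibitor Ro 20-1724 added with compounds to block cAMP breakdown; potency means the concentration at half of the fitted maximal effect; nearly all actives have a fitted effect of over 60% in size; about a fifth of the inactives were tested at one dose only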
#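 Cells stably selected in G418 were plated at 2000/well, grown 16-24 hr, then given compounds in DMSO with the PDE inhibitor […] (300 uM solution added) for 30 min at 37C; cAMP was read by HTRF.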
# ClpP mod: qHTS Assay for Activators of ClpP; ATP-dependent Clp protease proteolytic subunit (Bacillus subtilis (strain 168)), P80244; purified B. subtilis ClpP, FRET peptide cleavage, 20 min; Potency, µM (titrated, usually from 57.5 µM), for inactives: at the top dose activity change, negative = active; actives 1.9% (n = 340,000); active = well fitted falling curve with a large enough effect; inconclusive = small, poorly fitted or top-dose-only effect; inactive = no such curve, though single readings can be large or run the other way; further: potency means the concentration at half of the fitted maximal effect; the source files actives as falling curves though it sought activators and does not explain the sign; nearly all actives have a fitted effect of over 65% in size; many hits overshoot -100%
# Target sequence (P80244 whole entry, looked up): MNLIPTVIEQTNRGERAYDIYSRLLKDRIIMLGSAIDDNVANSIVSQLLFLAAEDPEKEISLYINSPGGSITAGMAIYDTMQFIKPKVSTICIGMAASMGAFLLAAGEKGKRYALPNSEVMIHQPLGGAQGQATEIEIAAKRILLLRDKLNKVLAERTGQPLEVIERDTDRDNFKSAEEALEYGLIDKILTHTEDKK
#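 FRET quenching reversal measured ClpP activation: 10 microg/mL B. subtilis ClpP at pH 8 with the FRET-FV decapeptide, read at 430 nm after 320 nm excitation. The 20-min minus 0-min signal was scaled between DMSO/no-enzyme wells and ADEP (5.8 microM final).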
# Menin-MLL FL inh: menin-MLL binding inhibition, fluorescein peptide; Fluorescence polarization, fluorescein-MLL peptide displacement from menin; FP activity change, % at 61.4 µM; 290,000 tested, under 10 active; AID 1766; inconclusive = falling polarisation curve, or a change in total fluorescence; inactive = total fluorescence flat and polarisation flat or rising; no compound was filed as active; the % refers to the polarisation; negative = inhibition;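 further: % of control where 0% means no effect; inhibitors lower the polarisation; unlabelled MLL peptide was the positive control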
# Sfp inh: inhibitors of Bacillus subtilis Sfp phosphopantetheinyl transferase | AID 1490 | Q9F4F7 | Biochemical Sfp PPTase activity, qHTS | actives 3.5% (n = 310,000) | Potency, µM, for the others: max response, negative = inhibition, actives largely listed as inhibitors; active means well fitted inhibition curve with a large enough effect; inconclusive means small, poorly fitted or top-dose-only effect, or another doubt; inactive means no such curve, though single readings can be large or run the other way;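 further: the enzyme is Sfp with the accession as filed and its product quenches rhodamine fluorescence; potency means the concentration at half of the fitted maximal effect; 0% = enzyme reaction without inhibitor and -100% = no enzyme wells; top concentration of the series not given in the record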
#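 Sfp 15 nM + cpd, 15 min RT; start w/ rhodamine-CoA 5 uM, BHQ-2-YbbR 12.5 uM (final); 50 mM Hepes pH 7.6, 10 mM MgCl2, 0.01% NP-40, 0.01% BSA; read 525/598 nm at 0 and 30 min.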
# gsp antagonist: gsp mutant antagonism; actives 0.4% (n = 340,000); Potency, µM (top dose mostly 76.9 µM), without a hit: top-dose activity change, negative = inhibition, most hits filed as inhibitors; AID 624288; gsp-mutant cells, cAMP HTRF, 30 min; control for the full effect not named in the record; active = falling curve of any shape with a large fitted effect; inconclusive = falling curve, mostly with a smaller effect; inactive = flat or rising curve; cell line not stated here;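 further: intracellular cAMP measured with PDE inhibitor Ro 20-1724 present during compound exposure; potency means the concentration at half of the fitted maximal effect; on the % scale 0 is the no-effect control and ±100 the full control effect; nearly all actives have a fitted effect of over 65% in size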
#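 Cells in G418 medium, seeded 16-24 h, 37C; buffer exchange to DPBS + 1 mM CaCl2, 0.5 mM MgCl2, 0.05% BSA; cpds in DMSO + […] (300 uM stock), 30 min 37C; HTRF cAMP detection.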
# CtBP-E1A blk: inhibitors of CtBP/E1A interaction | activity change, % (concentration not given with the values) | AlphaScreen GST-E1A/His-CtBP binding, 1536-well; active compounds read low; control for the full effect not named in the record | actives 0.49% (n = 340,000); in the data active means activity change below about -65%; inconclusive means about -30% to -65%; inactive means above about -30%; further: on the % scale 0 is the no-effect control and ±100 the full control effect
#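 Protein mix (5X: 125 nM each GST-E1A, His-CtBP) was incubated with pinned compound 2 h at 37 deg C in dark, in 50 mM Tris pH 8.0 buffer with 300 mM NaCl. Glutathione donor and nickel acceptor beads followed; AlphaScreen signal read after 1 h.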
# TRPV1 PAM: enhances activation of the human vanilloid receptor TRPV1. Q8NER1. TRPV1-expressing cells, Fluo-8 calcium influx, capsaicin EC20 potentiation; host cell line not named in the record; control for the full effect not named in the record. potentiation, % at 8.33 µM. actives 0.02% (n = 320,000). AID 540277; active means potentiation above 80%; inconclusive means 30% to 80%; inactive means below 30%; further: 0% is about no effect
# Target sequence (Q8NER1 whole entry, looked up): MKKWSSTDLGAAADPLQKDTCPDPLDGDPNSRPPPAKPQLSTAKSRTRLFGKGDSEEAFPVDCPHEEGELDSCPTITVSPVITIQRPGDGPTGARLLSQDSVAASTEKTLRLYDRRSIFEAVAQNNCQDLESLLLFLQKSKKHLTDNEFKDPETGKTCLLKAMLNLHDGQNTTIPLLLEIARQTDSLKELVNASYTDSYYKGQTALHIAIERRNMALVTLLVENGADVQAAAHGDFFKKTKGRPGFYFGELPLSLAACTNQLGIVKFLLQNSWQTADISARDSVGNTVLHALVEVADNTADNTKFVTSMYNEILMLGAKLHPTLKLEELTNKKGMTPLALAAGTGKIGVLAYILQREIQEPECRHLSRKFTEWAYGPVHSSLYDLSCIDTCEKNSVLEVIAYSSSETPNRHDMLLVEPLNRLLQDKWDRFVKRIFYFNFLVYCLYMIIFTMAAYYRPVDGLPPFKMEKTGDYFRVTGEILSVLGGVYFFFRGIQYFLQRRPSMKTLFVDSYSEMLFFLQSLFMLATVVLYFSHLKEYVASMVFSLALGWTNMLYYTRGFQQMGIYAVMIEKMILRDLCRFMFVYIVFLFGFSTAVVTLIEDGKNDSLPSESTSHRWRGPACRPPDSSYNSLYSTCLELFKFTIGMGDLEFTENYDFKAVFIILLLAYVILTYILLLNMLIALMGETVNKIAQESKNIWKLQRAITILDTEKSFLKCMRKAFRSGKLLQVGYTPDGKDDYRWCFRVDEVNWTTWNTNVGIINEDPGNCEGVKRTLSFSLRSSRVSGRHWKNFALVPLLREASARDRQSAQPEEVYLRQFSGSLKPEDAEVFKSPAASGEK
#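 Fluo-8 calcium influx in TRPV1-expressing cells, kinetic read (ex 480/em 520 nm). Compound added and read 3 min for agonist activity, followed by capsaicin at EC20 final and 2 min further read for enhancement.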
# * marks the source's active call; other numbers are inactive results; ? = inconclusive; . = not tested or not shown; & = joins results of further samples; [ ] = dose if it differs, or a comment. Not a hit list. About 5.3% of those tested had a hit in this group.
SMILES,gsp agonist,ClpP mod,Menin-MLL FL inh,Sfp inh,gsp antagonist,CtBP-E1A blk,TRPV1 PAM
NC(=O)NC(Cc1ccccc1)C(=O)O (stereo not given),-53.7%[inhibitor],1.0%,-0.4,21.2%,-1.8%,7.1,26.6
Cc1cccn2c(=O)c3cc(C(N)=S)c(=N)n(CCCN4CCOCC4)c3nc12,?,4.0%,-20.0,-26.8%,7.3%,-26.7,-0.9
COc1ccc(C(=O)NCCN2CCOCC2)c(OC)c1,-13.5%[15.4 µM],.,4.1,15.7%,1.5%,3.9,-5.9
Cc1ccc(C)c(N2CCN(C(c3ccncc3)c3nnnn3Cc3ccccc3)CC2)c1 (stereo not given),-26.9%,-1.1%,0.8,7.6%,-2.4%,0.4,16.2
C=CCNC(=O)CN(c1cccc(Br)c1)S(C)(=O)=O,-46.1%[inhibitor],-1.2%,-0.6,5.1%,5.9%,8.1,-4.3
CCCCN(C(=O)C(C)Oc1cccc(Cl)c1)c1c(N)n(CCC)c(=O)[nH]c1=O (stereo not given),19.0%[15.4 µM],0.1%,.,.,-0.6%,12.9,-7.3
O=C(Nc1nnc(S(=O)(=O)N2CCCCCC2)s1)c1cccc(Br)c1,?,-2.4%&-6.1%,-1.8,14.9%,28.2µM*,-0.3,-14.0
Cc1cccc(C)c1NC(=O)CSc1nnc(C)c(=O)[nH]1,9.4%,.,-1.5,17.3%,12.1%,-22.8,-17.3
COc1cc(OC)cc(-c2sc3ccc(OC)cc3c2C#CCO)c1,.,?,.,.,-16.8%,-1.0,.
COc1cc(OC)c(/C=N/NC(=O)c2ccc(Cn3nc([N+](=O)[O-])cc3C)cc2)c(OC)c1,6.7%,-0.6%,0.5,12.4%,0.8%,.,.
CC(=O)N1CCC(C(=O)Nc2ccc(S(=O)(=O)NCCc3ccccc3)cc2)CC1,-15.1%[15.4 µM],-1.1%,-4.8,6.5%,4.0%,-1.4,8.4
Cc1nc(-c2cc(-c3nc(-c4ccc(C(C)(C)C)cc4)no3)no2)cs1,4.6%,.,-1.5,39.8µM*,8.0%,0.0,9.3
COc1ccccc1/C=N/Nc1nc(C)c(C(C)=O)s1,-30.7%[inhibitor],?,.,.,-0.2%,-1.1,.
CCOc1cccc(C(=O)Nc2cccc(C(C)=O)c2)c1,9.5%[15.4 µM],-1.3%,1.5,-14.0%,-4.5%,-11.0,6.6
C=CC[C@@H](CC(=O)NCCO)C(=O)N[C@H](C)COC(=O)[C@@H](CC=C)CC(=O)OC(C)(C)C,.,1.2%,.,.,0.4%,-0.6,.
CCN(CC)C1Oc2cc3c(cc2C(c2cc(OC)c(OC)c(OC)c2)C1C)OCO3 (stereo not given),21.6%,-1.3%,.,.,11.8%,-12.7,.
COc1ccc(C(CNC(=O)c2cc(S(=O)(=O)NCc3ccccc3)ccc2C)N2CCOCC2)cc1 (stereo not given),-3.4%[15.4 µM],.,.,.,-6.5%,-13.9,-8.3
O=C(NC1CC2CCC(C1)N2C(=O)NCc1ccccc1)C1CC1 (stereo not given),0.2%,-3.0%,0.8,20.0%,4.1%,-1.1,3.2
CNC(=O)c1cc2cc(OC)ccc2n1CCN(C)C,6.6%,?,4.8,8.9%,6.2%[15.4 µM],-3.0,-8.5
CCCCC(=O)Nc1ccc(C(=O)OC2CCCCC2)cc1,-32.0%[inhibitor],0.4%,-1.4,13.3%,?,11.0,-4.4
CC(C)CNS(=O)(=O)c1ccc(CCC(=O)NCc2cccnc2)cc1,28.2%,-9.5%,2.4,4.6%,5.0%,-12.7,-24.6
Cc1c(C(=O)N2CC(C)OC(C)C2)oc2ccccc12 (stereo not given),-18.2%,-0.7%,0.2,7.8%,0.5%,-4.3,-3.1
Cc1ccc(C)c(S(=O)(=O)N2CCN(C(C)C(=O)Nc3ccccc3-c3ccccc3)CC2)c1 (stereo not given),12.9%,-2.4%,-1.8,20.8%,-8.1%,6.6,-30.6
C=CC[C@H](CC(=O)N(CCO)Cc1ccccc1)C(=O)NCCOC(=O)[C@@H](CC=C)CC(=O)OC(C)(C)C,-31.3%[inhibitor],-0.5%,.,.,-3.8%,0.0,.

# 3 entries drawn at random from the list so far:
SMILES,gsp agonist,ClpP mod,Menin-MLL FL inh,Sfp inh,gsp antagonist,CtBP-E1A blk,TRPV1 PAM
O=C(NC1CC2CCC(C1)N2C(=O)NCc1ccccc1)C1CC1 (stereo not given),0.2%,-3.0%,0.8,20.0%,4.1%,-1.1,3.2
CCCCC(=O)Nc1ccc(C(=O)OC2CCCCC2)cc1,-32.0%[inhibitor],0.4%,-1.4,13.3%,?,11.0,-4.4
C=CC[C@H](CC(=O)N(CCO)Cc1ccccc1)C(=O)NCCOC(=O)[C@@H](CC=C)CC(=O)OC(C)(C)C,-31.3%[inhibitor],-0.5%,.,.,-3.8%,0.0,.

# Continued.
SMILES,gsp agonist,ClpP mod,Menin-MLL FL inh,Sfp inh,gsp antagonist,CtBP-E1A blk,TRPV1 PAM
CCOc1cc(/C=C2\CCC/C(=C\c3cc(Cl)c(O)c(OCC)c3)C2=O)cc(Cl)c1O,5.3%,0.6%,?,4.8%,-25.5%,0.0,-8.7
Cc1nn(Cc2cccc(C(=O)N3N=C(C(F)F)CC3(O)C(F)F)c2)c(C)c1[N+](=O)[O-] (stereo not given),-43.2%[inhibitor],-1.1%,-0.8,29.3%,-13.7%,5.2,?
CCN(CC)CCNC(C(=O)Nc1cc(C(F)(F)F)ccc1Cl)c1ccccc1 (stereo not given),-26.2%,0.9%,-0.7,0.8%,17.8%,0.9,-21.4
Cc1cc(C)c(NC(=O)COC(=O)Cc2cccs2)c(C)c1,-4.8%[15.4 µM],.,.,.,8.1%,0.2,-5.0
COC(=O)c1sccc1NC(=O)c1cc2c(s1)CCCC2,-18.5%,35.5µM*,-0.9,?,-15.3%,0.5,6.6
O=C(C[n+]1cccc2ccccc21)c1ccccc1,-8.8%,-11.6%,?,?,1.4%,0.6,6.7
CCNC(=O)c1cccc(S(=O)(=O)N2CCCCCC2)c1,-55.0%[inhibitor],-10.7%,4.8,8.7%,11.9%,3.2,-2.3
C=CCNC(=S)N/N=C/c1cn(-c2ccccc2)nc1-c1ccc(OC)cc1,1.6%,-22.6%,0.3,21.1%,-17.3%,-1.8,-0.5
O=C(Cn1nnc(-c2ccc3c(c2)OCO3)n1)Nc1ccccc1C(=O)O,-34.7%[inhibitor],-17.2%,.,12.1%,10.4%,-0.6,21.4
O=C(NOCc1ccccc1)c1ccc([N+](=O)[O-])cc1,-6.8%,-1.9%,.,.,7.1%,-1.2,-25.7
O=C(CN1CCN(c2ccccc2O)CC1)Nc1cccnc1Cl,-16.8%,.,-5.8,10.9%,-3.3%,8.2,7.1
Cc1ccc(S(=O)(=O)NC2=NCN(Cc3ccccc3)CN2)cc1,0.8%,-2.0%,2.6,3.3%,11.0%,2.3,-1.3
Cc1csc(=NC(=O)c2ccccc2)n1Cc1ccco1,29.1%,-20.2%,-1.6,-6.2%,-3.1%,-10.0,?
C=CCc1c(C)nc(-c2ccccc2)nc1N/N=C(\C)c1ccccc1,0.2%[15.4 µM],-1.3%,2.9,44.7µM*,-0.6%,-16.1,-11.5
FC(F)(F)c1ccncc1-c1nnc(C2CCCCC2)o1,4.4%[15.4 µM],.,1.0,15.3%,-7.6%,6.2,-15.4
CCOC(=O)N1CCN(c2c(N3CCOCC3)c(=O)c2=O)CC1,16.3%,-1.2%,3.1,18.7%,-2.2%,0.7,1.5
O=C(Nc1cccc(F)c1)C1C2C=CC3(CN(CCCN4CCOCC4)C(=O)C13)O2 (stereo not given),5.9%,-1.3%,0.7,1.6%,8.3%,1.2,-4.7
Cc1oc(-c2ccc(Cl)cc2)nc1CS(=O)CC(=O)NC1CCCCCC1 (stereo not given),23.6%,-19.3%,.,-2.8%,5.8%,-9.3,-10.1
CC[C@@]1(C(=O)OC)N[C@H](CN(C)C(=O)COc2ccccc2)[C@@H]2C(=O)N(C)C(=O)[C@@H]21,.,0.6%,.,.,5.2%,8.1,.
O=c1cnnc(SCCc2ccccc2)[nH]1,-14.3%,-0.2%,1.6,35.1%[activator],-5.5%,7.8,6.4
Cc1nn(-c2ccccc2)c(C)c1NC(=O)COc1ccc2ccccc2c1,-56.1%[inhibitor],-2.0%,-3.7,9.7%,15.8µM*,0.1,5.3
O=C(O)c1cccc(NCc2ccncc2)c1,.,.,-0.7,-1.0%,.,.,?
COc1cccc(N=C2C(=O)N3CCCc4cccc2c43)c1,9.6%,-16.9%,0.5,-5.8%,-20.9%,-2.3,2.7
COC(=O)c1ccc(OCC(=O)Nc2ccsc2C(=O)OC)cc1,1.9%[15.4 µM],.,-1.1,-1.8%,-28.2%,-1.1,5.4
CCOc1ccc(N(CC(=O)NCC2CCCO2)C(=O)CCC(=O)Nc2nccs2)cc1 (stereo not given),?,.,-3.5,4.2%,4.9%,-0.1,7.1

# Entries of single compounds, quoted from the list. Screens in order: gsp agonist | ClpP mod | Menin-MLL FL inh | Sfp inh | gsp antagonist | CtBP-E1A blk | TRPV1 PAM
# CC[C@@]1(C(=O)OC)N[C@H](CN(C)C(=O)COc2ccccc2)[C@@H]2C(=O)N(C)C(=O)[C@@H]21 is entered as . | 0.6% | . | . | 5.2% | 8.1 | .
# C=CCc1c(C)nc(-c2ccccc2)nc1N/N=C(\C)c1ccccc1 is entered as 0.2%[15.4 µM] | -1.3% | 2.9 | 44.7µM* | -0.6% | -16.1 | -11.5
# COC(=O)c1ccc(OCC(=O)Nc2ccsc2C(=O)OC)cc1 is entered as 1.9%[15.4 µM] | . | -1.1 | -1.8% | -28.2% | -1.1 | 5.4
